# Screens as filed in PubChem BioAssay.
# Cruzain inh noDet – blocks cruzain activity in detergent-free assay; purified cruzain, Z-FR-AMC fluorescence, no detergent; Potency, µM, inactives show max response, negative = inhibition, usual class: inhibitors; actives 2.3% (n = 200,000); P25779;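 note: plate controls were enzyme without inhibitor for no effect and buffer without enzyme for full effect; nearly all actives have a fitted effect of over 40% in size; top concentration of the series not given in the record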
# Target sequence (P25779 123-467 limits assumed): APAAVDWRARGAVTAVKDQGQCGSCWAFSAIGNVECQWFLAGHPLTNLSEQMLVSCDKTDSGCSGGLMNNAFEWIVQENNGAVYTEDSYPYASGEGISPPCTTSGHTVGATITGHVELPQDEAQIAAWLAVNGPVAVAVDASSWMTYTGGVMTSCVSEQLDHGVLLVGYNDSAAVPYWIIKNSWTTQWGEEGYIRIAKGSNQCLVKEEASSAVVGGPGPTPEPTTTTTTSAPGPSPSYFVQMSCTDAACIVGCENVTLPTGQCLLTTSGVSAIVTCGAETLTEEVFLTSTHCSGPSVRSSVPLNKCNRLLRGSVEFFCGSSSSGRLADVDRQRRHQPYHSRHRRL
#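 Detergent-free condition (0.00005% Triton X-100) in acetate buffer pH 5.5 with DTT. 1.5 nM enzyme and compound were pre-mixed 15 min, then 2 uM Z-FR-AMC substrate added; reaction progress from fluorescence change between first and third reads (60 s).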
# NS1 function inh – blocks influenza NS1 protein function; Potency, µM (highest dose often 46.1 µM), for the others: top-dose activity, positive = more growth; S. cerevisiae slowed by influenza A NS1, growth recovery by OD600; actives 0.4% (n = 270,000); active means well fitted rising curve with a large enough effect; inconclusive means small, poorly fitted or top-dose-only effect; inactive means no such curve, though single readings can be large or run the other way; note: nearly all actives have a fitted effect of over 50% in size
#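 Recovery from NS1-induced slow growth read by OD600 in budding yeast switched to galactose assay medium (pH 6.0, -URA) at 1:100 dilution. Compound 23 nl per well; the matching strain lacking NS1 serves as control.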
# LASV entry inh – blocks Lassa virus binding to or entry into cells. Lassa virus pseudotype entry inhibition, cell reporter; control for the full effect not named in the record. Potency, µM (doses to about 37.9 µM), for the others: at the top dose activity change, negative = inhibition, actives largely listed as inhibitors. actives 1.2% (n = 300,000). AID 540256; active means well fitted inhibition curve with a large enough effect; inconclusive means small, poorly fitted or top-dose-only effect, or effect the other way; inactive means flat fitted curve, though single readings scatter; tested in HEK293 cells; note: % is set by controls: 0 for no effect and ±100 for the full control effect; nearly all actives have a fitted effect of over 50% in size; luciferase read-out
# RE007 growth inh – less growth of the S. pombe RE007 Vpr strain | actives 0.21% (n = 360,000) | Potency, µM (top dose mostly 92.2 µM), without a hit: top-dose activity change, negative = less growth | S. pombe RE007 Vpr strain, BacTiter-Glo ATP luminescence, 24 h; control for the full effect not named in the record; active = well fitted falling curve with a large enough effect; inconclusive = small, poorly fitted or top-dose-only effect; inactive = no such curve, though single readings can be large or run the other way;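 note: % is set by controls: 0 for no effect and ±100 for the full control effect; nearly all actives have a fitted effect of over 50% in size; the assay follows cell death caused by Vpr and the record does not say whether a fall means rescue or toxicity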
#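 Fission yeast strain RE007, carrying one chromosomally integrated HIV-1 vpr copy, was seeded at OD 0.01 in PMG+AL medium with 23 nL pinned compound. After 24 h at 30 °C and 99% humidity, viability was read by BacTiter-Glo luminescence.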
# SARS PLpro yeast – SARS-CoV PLP inhibition in yeast; S. cerevisiae expressing SARS-CoV PLpro, growth rescue; control for the full effect not named in the record; Potency, µM (highest dose often 32.9 µM), for inactives: at the highest dose activity, positive = growth rescue; actives 0.19% (n = 330,000); active means well fitted rising curve with a large enough effect; inconclusive means small, poorly fitted or top-dose-only effect; inactive means no such curve, though single readings can be large or run the other way; note: 0% is about no effect; nearly all actives have a fitted effect of over 55% in size; growth read by luminescence after 48 h
# MARV entry inh – Marburg virus entry inhibition | Marburg virus pseudotyped entry inhibition, cell reporter; control for the full effect not named in the record; about a third of the inactives were read at about 46 µM | Potency, µM (titrated, usually from 37.8 µM), for inactives: at the top dose activity change, negative = inhibition, actives largely listed as inhibitors | actives 1.8% (n = 300,000); active = well fitted inhibition curve with a large enough effect; inconclusive = small, poorly fitted or top-dose-only effect, or effect the other way; inactive = flat fitted curve, though single readings scatter; tested in HEK293 cells; about a fifth of its hits are not listed in these tables; note: % is set by controls: 0 for no effect and ±100 for the full control effect; luciferase read-out
# StopGo reporter – lowers the luciferase signal of an FMDV 2A StopGo reporter. human cells with a luciferase reporter of 2A StopGo recoding; control for the full effect not named in the record. Potency, µM (highest dose often 57.9 µM), without a hit: at the highest dose signal change, negative = less light. actives 1.2% (n = 410,000); active = well fitted falling curve with a large enough effect; inconclusive = small, poorly fitted or top-dose-only effect; inactive = no such curve, though single readings can be large or run the other way; tested in HEK293T cells; note: % is set by controls: 0 for no effect and ±100 for the full control effect; nearly all actives have a fitted effect of over 45% in size; luciferase light after 4 h
# Cruzain Triton – blocks cruzain activity in presence of Triton detergent; purified cruzain, Z-FR-AMC fluorescence, 0.01% Triton; Potency, µM, inactives show max response, negative = inhibition, hits mostly inhibitors; actives 0.43% (n = 200,000); AID 1478;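 note: plate controls were neutral wells for no effect and buffer without enzyme for full effect; nearly all actives have a fitted effect of over 40% in size; top concentration of the series not given in the record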
#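 Sodium acetate buffer (100 mM, pH 5.5) containing 5 mM DTT and 0.01% Triton X-100 hosted 1.5 nM cruzain and test compound for 15 min at room temperature. Cleavage of 2 uM Z-FR-AMC was then tracked by fluorescence.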
# Starred values were filed as active, the others as inactive; ? = inconclusive; . = not tested or not shown; & = joins results of further samples; [ ] = another dose, or the depositor's remark. Unless noted, calls come from the whole dose curve; as a rule, active = well fitted curve in the direction sought with a large enough effect; inconclusive = small, poorly fitted or top-dose-only effect, or another doubt; inactive = no such curve, though single readings can be large; an effect the other way counts as inactive or inconclusive. Potency is the fitted concentration of half-maximal effect.
SMILES,Cruzain inh noDet,NS1 function inh,LASV entry inh,RE007 growth inh,SARS PLpro yeast,MARV entry inh,StopGo reporter,Cruzain Triton
CCOC(=O)Cn1c(=O)oc2cc(S(=O)(=O)NCCC(C)C)ccc21,-8%,-11%,.,-3%,3%,.,30%[activator],4.0%
CCOC(=O)C1CCN(C(=O)c2cc3cc4cc(OC)ccc4nc3o2)CC1,24%,-16%,2%,-2%,0%,?,45%[activator],-1.8%
CCc1cc2c(-c3ccccc3)cc(=O)oc2cc1OC(C)C(C)=O (configuration not stated),.,-59%,?,31%,-17%,-20%,-20%,.
COc1ccc(-c2cc3ccc(OCc4nn[nH]n4)cc3oc2=O)cc1,-22%,1%,?,22%[3.69 µM],12%,?,-1%,-25%
O=C(c1ccccc1F)N1CCN(c2ccc([N+](=O)[O-])c(NCc3cccnc3)c2)CC1,.,-5%,-11%,4%,1%,?,?,.
O=C(Oc1ccc(C(=S)N2CCCCC2)cc1)c1ccccc1,.,-3%,10%,23%,0%,?,-7%,.
O=[N+]([O-])c1ccc(Sc2n[nH]c(-c3ccccc3)n2)nc1,-3%,-62%,-1%,-27%,-11%,30%[46.1 µM],0%,-2.7%
OCC1(CCOc2ccccc2)CCN(Cc2ccccc2OC(F)F)CC1,.,-9%,7%[46.1 µM],-20%,?,?,5%,.
COc1cccc(CNC(=O)CCS(=O)(=O)c2cccc3nsnc23)c1,-3%,2%,-7%,17%,-5%,-1%&-1%,-19%,-3.5%
CCOC(=O)C(=Cc1ccc(OCc2ccc([N+](=O)[O-])cc2)c(OC)c1)C(=O)OCC,2%,-3%,?,-13%,-2%,?,?,-1.2%
Cc1ccccc1C(=O)Nc1cc(C)c(O)c(-c2nc3ccccc3o2)c1,-5%,.,-12%[46.1 µM],.,.,-7%[46.1 µM],2%,0.8%
CN(CCOC(=O)c1cccc(F)c1)Cc1ccccc1,0%,-5%,0%,14%,17%,0%,1%,0.4%
Clc1ccccc1CNc1ncnc2c1c(-c1ccccc1)cn2-c1ccccc1,5%,.,-23%[46.1 µM],.,.,.,-17%,0.9%
CSc1ccc(C(=O)NCC(=O)O)cc1[N+](=O)[O-],.,1%,.,-9%,0%,.,24%,.
CNC(=O)COC(=O)c1ccc(OCC(=O)Nc2ccccc2OC)c(OC)c1,.,4%,-11%,5%,-2%,12%[46.1 µM],11%,.
CC(C)CN(C(=O)CCNC(=O)c1ccc([N+](=O)[O-])cc1)C1CCS(=O)(=O)C1 (configuration not stated),.,.,3%[46.1 µM],3%,1%,3%[46.1 µM],12%,.
C/C(=C\c1ccccc1)C(=O)NC1CCSC1=O (configuration not stated),-1%,6%,0%,-2%,-8%,3%,38%[activator],0.7%
Cn1nc(C(F)(F)F)c(/C=N/OC(=O)c2ccccc2Cl)c1SCc1ccccc1Cl,-19%,-5%,-3%,-9%,0%,0%,-25%,-0.1%
O=C(CSc1nccn1-c1cccc(Cl)c1)Nc1cccc(C(F)(F)F)c1,10%,.,-7%[46.1 µM],.,.,.,-14%,-10%
O=C(CN1C(=O)C2C3C=CC(C3)C2C1=O)Nc1ccc2nccnc2c1 (configuration not stated),7%,4%,.,-9%,8%,.,-16%,-5.9%
CC(C)CCNc1nc2ccccc2nc1NS(=O)(=O)c1cccs1,.,-5%,20%,-10%,0%,12%[46.1 µM],2%,.
O=C(OCC1OC(n2ncc(=O)[nH]c2=O)C(OC(=O)c2ccccc2)C1OC(=O)c1ccccc1)c1ccccc1 (configuration not stated),.,17%,.,1%,-5%,.,-20%,.
CCC(CC)c1nnc(NC(=O)C2CSC3(C)CCC(=O)N23)s1 (configuration not stated),.,.,2%,5%,4%,5%,-10%,.
NC(=O)c1cccc([N+](=O)[O-])c1,5%,.,.,0%,3%,.,-3%,-8.0%
CCOC(=O)c1ccc(-c2ccc(/C=N/NC(=O)c3cncc(Br)c3)o2)cc1,.,-1%,4%,2%,-1%,-7%,42%[activator],.
# The list goes on:
SMILES,Cruzain inh noDet,NS1 function inh,LASV entry inh,RE007 growth inh,SARS PLpro yeast,MARV entry inh,StopGo reporter,Cruzain Triton
C/C(=N\NC(=O)c1cccc(S(=O)(=O)N2CCCC2)c1)c1cccs1,.,.,.,-8%,6%,7%[46.1 µM],50%[activator],.
O=C(N1CCN(c2ccccc2F)CC1)C1(c2cccs2)CCOCC1,13%,-1%,-19%,4%,-8%,1%,?,1.7%
CCc1ccc(NC(=O)c2cc(=O)c3ccc(C)c(C)c3o2)cc1,3%,.,0%[46.1 µM],.,.,?,-13%,-7.1%
O=C(COn1nnc2ccccc21)NCC1CCCCC1,-6%,-1%,?,-9%,-8%,-12%[46.1 µM],75%[activator],0.8%
Cc1cc(C)nc(NS(=O)(=O)c2ccc(N3C(=O)c4ccccc4C3=O)cc2)n1,-1%,-4%,9%,16%,19%,-4%,73%[activator],-2.1%
O=C(c1ccc(Cl)cc1)c1c[nH]c(C(=O)NNc2cccc(Cl)n2)c1,.,.,?,-1%,1%,?,-19%,.
Cc1nc(-c2ccccc2)nc2[nH]c(-c3ccccc3)cc(=O)c12,8%,2%,-2%,-4%,12%,-22%,-27%,-2.4%
CN(C)S(=O)(=O)N1CCN(S(=O)(=O)c2ccccc2)CC1,-4%,4%,-3%,4%,0%,-5%,6%,4.1%
Cc1[nH]c2ccc(C(=O)NCCN3CCCCCC3)cc2c1C,.,-8%,.,-13%,4%,.,-6%,.
CCCC(O)(CCN1CCOCC1)c1ccc(Cl)cc1 (configuration not stated),.,6%,.,11%,1%,.,-10%,.
COc1ccc(C2c3c(-c4ccccc4)n[nH]c3C(=O)N2c2ccc(C(=O)O)cc2)cc1 (configuration not stated),.,?,.,2%,5%,.,-19%,.
COc1cc(CNS(=O)(=O)c2ccc3c(c2)CC(C)N3C(=O)C2CCC2)cc(OC)c1OC (configuration not stated),.,-5%,.,-6%,2%,.,?,.
CC(=O)Nc1ccccc1-c1nc2ccccc2n(C(C)C(=O)c2ccc(C)c(C)c2)c1=O (configuration not stated),-6%,.,1%[46.1 µM],.,.,?,-23%,-4.0%
O=[N+]([O-])c1ccc(N2CCNCC2)cc1NCc1ccco1,-22%,-3%,7%,.,17%,-1%,-7%,-12%
Cc1cc(NC(=O)c2ccccc2)n(-c2ccccc2)n1,.,2%,3%,-12%,0%,-12%,-4%,.
Nc1nc(NC(=O)c2cccs2)nn1-c1ccccc1,-7%,4%,-1%,?,5%,-26%&-26%,13%,0.3%
Cc1cc(N2C(=O)CCC2=O)n(-c2ccccc2)n1,?,?,2%,12%,-6%,6%,-13%,-1.0%
COC(=O)c1ccc(NC(=O)C2C3C=CC(O3)C2C(=O)O)cc1 (configuration not stated),2%,-2%,8%,?,-30%,10%,-24%,3.9%
Cc1ccccc1Cn1c(=O)n(CCCCC(=O)NCc2ccccc2Cl)c(=O)c2ccccc21,-10%,.,0%[46.1 µM],.,.,0%[46.1 µM],3%,-1.7%
CC[C@@]12C(=O)N(c3cccc(Br)c3)C(=O)N1[C@H](c1ccc(Cl)cc1)[C@@H]1C(=O)N(C3CCCCC3)C(=O)[C@@H]12,.,25%,.,4%,12%,.,-12%,.
O=C(CS(=O)(=O)c1cccc2nsnc12)N1CCN(c2ccccc2F)CC1,-15%,.,?,.,.,.,-5%,-4.3%
CCCCN(C(=O)c1cccc(S(=O)(=O)N2CCN(C)CC2)c1)c1c(N)n(CC(C)C)c(=O)[nH]c1=O,.,.,29%,5%,-1%,30%[46.1 µM],-10%,.
O=P(C(c1c[nH]c2ccccc12)N1CCOCC1)(N1CCOCC1)N1CCOCC1 (configuration not stated),-8%,-2%,2%,-4%,4%,0%[46.1 µM],3%,1.5%
Cc1cccc(NC(=O)CCCCCN2C(=O)c3ccccc3C2=O)n1,-5%,-2%,2%,1%,-1%,-3%,-1%,4.6%
CC/C(=N\NC(=O)c1nnn(-c2nonc2N)c1-c1cccs1)c1ccccc1,.,4%,1%[46.1 µM],-1%,-3%,?,-21%,.
COc1cccc(-c2nnn(CC(=O)Nc3cc(OC)c(NC(=O)c4ccco4)cc3OC)n2)c1,0%,9%,-26%,-6%,5%,-17%,-7%,2.7%
COc1cccc(/C(C)=N/NC(=O)Cc2c(C)[nH][nH]c2=O)c1,.,8%,.,-22%,-2%,.,9%,.
Cc1ccc(CNC(=O)CCCCCn2c(=O)c3sccc3n(CC(=O)N(C)c3ccccc3)c2=O)cc1,4%,.,?,.,.,?,-12%,-3.3%
COc1ccc(C(=O)N/N=C/c2ccccc2C(=O)O)cc1OC,.,2%,.,4%,3%,.,16%,.

# Another view of some results above:
Cc1cc(N2C(=O)CCC2=O)n(-c2ccccc2)n1
  Cruzain inh noDet: ?
  NS1 function inh: ?
  LASV entry inh: 2%
  RE007 growth inh: 12%
  SARS PLpro yeast: -6%
  MARV entry inh: 6%
  StopGo reporter: -13%
  Cruzain Triton: -1.0%

COC(=O)c1ccc(NC(=O)C2C3C=CC(O3)C2C(=O)O)cc1 (configuration not stated)
  Cruzain inh noDet: 2%
  NS1 function inh: -2%
  LASV entry inh: 8%
  RE007 growth inh: ?
  SARS PLpro yeast: -30%
  MARV entry inh: 10%
  StopGo reporter: -24%
  Cruzain Triton: 3.9%

Cc1ccccc1Cn1c(=O)n(CCCCC(=O)NCc2ccccc2Cl)c(=O)c2ccccc21
  Cruzain inh noDet: -10%
  NS1 function inh: .
  LASV entry inh: 0%[46.1 µM]
  RE007 growth inh: .
  SARS PLpro yeast: .
  MARV entry inh: 0%[46.1 µM]
  StopGo reporter: 3%
  Cruzain Triton: -1.7%

CC[C@@]12C(=O)N(c3cccc(Br)c3)C(=O)N1[C@H](c1ccc(Cl)cc1)[C@@H]1C(=O)N(C3CCCCC3)C(=O)[C@@H]12
  Cruzain inh noDet: .
  NS1 function inh: 25%
  LASV entry inh: .
  RE007 growth inh: 4%
  SARS PLpro yeast: 12%
  MARV entry inh: .
  StopGo reporter: -12%
  Cruzain Triton: .
